# Mtb hypoxia rep: inhibitors of hypoxia-regulated fluorescent reporter in Mycobacterium tuberculosis; 300,000 tested, 0.1% active; M. tuberculosis hypoxia-regulated fluorescent reporter, fluorescence; fluorescence inhibition, % (no concentration beside the values);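 active means 35 to 45% if threefold the growth effect, above 45% if 1.5-fold the growth effect; inactive means the rest, general growth blockers included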;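 further: wells of about 50 µL received 100 nL stock; 0% = vehicle wells and 100% = reference inhibitor wells; whole bacteria with a GFP reporter of the hypoxia response; strong numbers were not always called active; many hits fall short of the cut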
# BJeLR viability: BJeLR cell viability loss | BJeLR (HRASV12) viability, CellTiter-Glo ATP luminescence, 48 h; reference of the scale not given here | inhibition, % (concentration not given with the values) | 300,000 tested, 0.17% active;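 active means replicate mean above 50%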;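 further: 50 nL library stock added to about 25 µL; numbers are from one replicate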
# RN4220 kill: kills Staphylococcus aureus RN4220; S. aureus RN4220 growth, OD600, 16 h; inhibition, % (concentration not given with the values); 330,000 tested, 0.33% active; AID 1259311;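 active means z-score of -3 or lower and OD600 up to 0.18 on both plates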;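 further: plate controls were untreated cells for no effect and reference antibiotic for full effect; stock transfer was 100 nL into about 80 µL; one replicate is shown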
# Sa ugtP lethal: compounds lethal to S. aureus RN4220 ugtP deletion mutant. OD600 growth, 16 h; some inactives read as strong as hits. growth inhibition, % (concentration not given with the values). 330,000 tested, 0.54% active. AID 1259309;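 active means z-score under -3 and OD600 up to 0.15 on both plates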;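 further: plate controls were untreated wells for no effect and antibiotic for full effect; wells of about 80 µL received 100 nL stock; the first replicate is given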
# Bead autofluor: compound fluorescence in toxin protease inhibitor counterscreen; compound autofluorescence counterscreen, microsphere flow cytometry; active compounds read high; fluorescence intensity (no concentration beside the values); 360,000 tested, 3.1% active; AID 624483;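 active means at least 3 SD above the mean of all compounds, about 16000 in these data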;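 further: 100 nL of 1 mM stock went into each well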
# PrP UTR inh: suppresses PrP 5' UTR mRNA reporter expression; 340,000 tested, 0.35% active; cell-based PrP 5' UTR mRNA reporter, plate reader; inhibition, % (test concentration not listed); AID 488862;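 active means every replicate at 50% or more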;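 further: 0 = median of the neutral control wells; tested in H4 reporter cells; numbers are from one replicate; inactives centre near -14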
# Mtb hypoxia rep growth: recorded beside Mtb hypoxia rep, whose call it bears; growth inhibition, %; measured here: M. tuberculosis growth (absorbance);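 0% = vehicle and 100% = reference antibiotic; read after six days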
# An asterisk follows results filed as active; nt = not tested or not shown.
# The first 18 compounds, ahead of the listing:
SMILES,Mtb hypoxia rep,Mtb hypoxia rep growth,BJeLR viability,RN4220 kill,Sa ugtP lethal,Bead autofluor,PrP UTR inh
O=C(CSc1ccc(-c2ccc(Br)cc2)nn1)N1CCOCC1,7.2,1.5,3.7,-0.7,5.7,3957,-44.3
COc1cc2c(cc1O)C(SC)=NC(C)(C)C2,nt,nt,-0.8,4.1,7.2,4218,-40.0
Cc1ccc(C=NNC(=O)c2cccnc2)o1,5.8,-5.2,nt,0.4,-2.1,nt,nt
Cc1cccc(N2CCN(C(=O)c3ccc(NC(=O)CC4SC(N5CCCC5)=NC4=O)cc3)CC2)c1C (stereo not drawn),-9.1,10.9,nt,-2.9,-5.4,6154,nt
CSc1ncccc1C(=O)NC1CCN(Cc2ccccc2)CC1,8.6,2.9,-4.9,6.2,-1.3,5849,-24.7
CC(=O)C1C(c2cccc(C(F)(F)F)c2)NC(=O)N(Cc2ccccc2)C1C (stereo not drawn),15.0,5.9,nt,4.0,6.6,nt,nt
CC1(c2ccc(OC(F)F)cc2)NC(=O)N(CC(=O)Nc2ccc(OC(F)F)cc2)C1=O (stereo not drawn),10.4,8.6,3.0,-9.8,6.1,3680,-22.6
CN(C)S(=O)(=O)c1ccc(C(=O)NCc2ccco2)cc1,2.7,-3.8,1.1,2.7,1.8,2531,-17.2
CN(C)S(=O)(=O)c1cccc(C(=O)NCC2CCCCC2)c1,-9.1,12.1,7.1,-4.4,1.8,5603,-12.6
CC1(C)NC(=O)N(CC(=O)N2CCN(S(=O)(=O)c3ccccc3C(F)(F)F)CC2)C1=O,2.9,-2.7,nt,2.4,2.7,nt,-11.9
COc1ccc(-c2nc(CCl)cs2)cc1,8.6,7.7,4.7,12.1,5.5,4101,-57.4
CN(C)C=NC(=O)c1cc(C(=O)c2ccc(Cl)cc2)c[nH]1,10.5,1.0,0.8,3.9,6.2,4268,-63.5
CNc1nc(-c2ccccc2)[n+](-c2ccc(C)cc2)s1,2.7,2.9,4.7,1.9,-3.2,9602,-6.2
N#Cc1c(/N=C\c2ccc(O)c([N+](=O)[O-])c2)sc2c1CCCC2,nt,nt,-9.2,nt,nt,2574,-14.8
CCCCC(=O)Nc1ccc(NC(=O)c2cnccn2)cn1,-0.1,-0.2,-5.6,-2.6,-0.1,4883,-40.6
Cn1c(CN2CCN(C(=O)c3ccccc3)CC2)nc2cc([N+](=O)[O-])ccc21,-8.2,2.3,-0.6,7.6,12.5,2676,-21.1
Cc1cccc(N2CC(C(=O)Nc3nnc(SCC(=O)Nc4nccs4)s3)CC2=O)c1 (stereo not drawn),-1.7,-4.0,-10.1,3.1,-7.3,2237,-21.9
CCn1cc(/C=N/O)c(C)n1,nt,nt,-1.3,nt,nt,2912,-3.9

# This part in full, repeating the preview:
SMILES,Mtb hypoxia rep,Mtb hypoxia rep growth,BJeLR viability,RN4220 kill,Sa ugtP lethal,Bead autofluor,PrP UTR inh
O=C(CSc1ccc(-c2ccc(Br)cc2)nn1)N1CCOCC1,7.2,1.5,3.7,-0.7,5.7,3957,-44.3
COc1cc2c(cc1O)C(SC)=NC(C)(C)C2,nt,nt,-0.8,4.1,7.2,4218,-40.0
Cc1ccc(C=NNC(=O)c2cccnc2)o1,5.8,-5.2,nt,0.4,-2.1,nt,nt
Cc1cccc(N2CCN(C(=O)c3ccc(NC(=O)CC4SC(N5CCCC5)=NC4=O)cc3)CC2)c1C (stereo not drawn),-9.1,10.9,nt,-2.9,-5.4,6154,nt
CSc1ncccc1C(=O)NC1CCN(Cc2ccccc2)CC1,8.6,2.9,-4.9,6.2,-1.3,5849,-24.7
CC(=O)C1C(c2cccc(C(F)(F)F)c2)NC(=O)N(Cc2ccccc2)C1C (stereo not drawn),15.0,5.9,nt,4.0,6.6,nt,nt
CC1(c2ccc(OC(F)F)cc2)NC(=O)N(CC(=O)Nc2ccc(OC(F)F)cc2)C1=O (stereo not drawn),10.4,8.6,3.0,-9.8,6.1,3680,-22.6
CN(C)S(=O)(=O)c1ccc(C(=O)NCc2ccco2)cc1,2.7,-3.8,1.1,2.7,1.8,2531,-17.2
CN(C)S(=O)(=O)c1cccc(C(=O)NCC2CCCCC2)c1,-9.1,12.1,7.1,-4.4,1.8,5603,-12.6
CC1(C)NC(=O)N(CC(=O)N2CCN(S(=O)(=O)c3ccccc3C(F)(F)F)CC2)C1=O,2.9,-2.7,nt,2.4,2.7,nt,-11.9
COc1ccc(-c2nc(CCl)cs2)cc1,8.6,7.7,4.7,12.1,5.5,4101,-57.4
CN(C)C=NC(=O)c1cc(C(=O)c2ccc(Cl)cc2)c[nH]1,10.5,1.0,0.8,3.9,6.2,4268,-63.5
CNc1nc(-c2ccccc2)[n+](-c2ccc(C)cc2)s1,2.7,2.9,4.7,1.9,-3.2,9602,-6.2
N#Cc1c(/N=C\c2ccc(O)c([N+](=O)[O-])c2)sc2c1CCCC2,nt,nt,-9.2,nt,nt,2574,-14.8
CCCCC(=O)Nc1ccc(NC(=O)c2cnccn2)cn1,-0.1,-0.2,-5.6,-2.6,-0.1,4883,-40.6
Cn1c(CN2CCN(C(=O)c3ccccc3)CC2)nc2cc([N+](=O)[O-])ccc21,-8.2,2.3,-0.6,7.6,12.5,2676,-21.1
Cc1cccc(N2CC(C(=O)Nc3nnc(SCC(=O)Nc4nccs4)s3)CC2=O)c1 (stereo not drawn),-1.7,-4.0,-10.1,3.1,-7.3,2237,-21.9
CCn1cc(/C=N/O)c(C)n1,nt,nt,-1.3,nt,nt,2912,-3.9
O=C(Nc1ccncc1)Nc1cccc(F)c1,3.0,-5.4,2.3,-4.6,-0.6,4241,3.9
CON=CC(=NNc1ccc(OC)cc1)C(=O)c1ccccc1,11.0,3.3,nt,-17.3,0.0,nt,nt
Cc1nc(SCC(=O)CC(=O)OC(C)C)c(C#N)c(C)c1C,1.4,12.2,6.1,-1.3,-2.2,9811,-19.5
CN(C)c1ccc(N=Nc2ccccc2C(=O)OCC(=O)N(C)C2CCCCC2)cc1,17.6,13.0,-11.2,11.8,-8.1,2333,-6.6
CCN(CC)CCN(C(=O)c1ccc([N+](=O)[O-])cc1)c1nc2c(OC)cccc2s1,3.2,0.2,0.6,2.5,3.7,nt,-5.0
CCOc1c(C(=O)CC)cc2c(C)cc(=O)oc2c1C,5.4,6.5,3.2,2.9,9.4,16306*,-8.3
S=C(NCCc1ccccn1)Nc1ccc(Cl)cc1,8.3,12.4,-9.8,2.4,-0.5,2168,-39.3
CCc1nc(NC(=O)Cc2csc(C)n2)sc1C(=O)OC,1.4,0.4,-11.2,4.6,3.0,3766,-21.6
O=C(OCC(=O)N1CCc2ccccc2C1)c1c(F)cccc1Cl,20.6,45.7,nt,1.3,3.1,3834,-42.0
COc1ccccc1/C=C/C(=O)NCC(=O)N/N=C/c1ccc(C)o1,nt,nt,-6.4,nt,nt,3196,-3.1
Cc1nc(NC(=O)c2ccco2)sc1-c1csc(Nc2ccc(Cl)cc2)n1,nt,nt,3.9,nt,nt,2889,-23.2
O=C(CNC(=O)c1ccc(Cl)cc1)c1ccccc1,6.2,6.5,-2.4,3.2,12.7,nt,-87.9
Cc1ccc2[nH]c3c(=O)n(CCCN4CCN(C)CC4)cnc3c2c1,-4.5,4.6,-4.3,0.9,-3.0,23434*,-18.5
CS(=O)(=O)NCCNC(=O)c1cc(OCC(F)(F)F)ccc1OCC(F)(F)F,9.6,-3.7,-5.3,2.0,-8.5,2670,-20.5
CC1CCC(NCC(=O)Nc2cccc(S(N)(=O)=O)c2)CC1 (stereo not drawn),5.5,9.9,21.8,11.4,3.6,4217,-3.6
CCc1ccc(NC(=O)COC(=O)/C=C/c2ccco2)cc1,7.0,3.8,nt,7.8,5.5,2946,-26.4
COc1ccccc1C(=O)NC(=O)CSc1nncn1C,5.2,-1.0,-5.8,2.3,4.1,6218,-15.2
O=C(c1ccccc1F)N1CCN(c2cnn(-c3cccc(Cl)c3)c(=O)c2Cl)CC1,10.3,12.4,7.3,3.7,1.3,4572,-15.7
CCn1ncc(/C=N\NC(=O)c2csc3ccccc23)c1C,nt,nt,11.1,nt,nt,4917,-6.6
Cc1ccc(S(=O)(=O)N2CCN(C(=O)COC(=O)Cc3cccc(C(F)(F)F)c3)CC2)c(C)c1,0.3,-3.9,-8.9,0.2,0.5,5275,4.6
CN(/N=C/c1ccc([N+](=O)[O-])o1)c1ccccc1,nt,nt,-8.8,nt,nt,2453,-16.8
Cc1ccc(-n2nc3c(N4CCC(C(=O)NCCc5ccccc5C)CC4)nnc(C)c3c2C)cc1,nt,nt,0.5,nt,nt,11467,-4.7
O=S(=O)(Nc1ccc(Cc2ccncc2)cc1)c1cccs1,-3.1,3.8,3.3,-1.1,-3.9,9265,-16.2
CC(C)c1nnc(NC(=O)Cc2ccccc2[N+](=O)[O-])s1,5.3,10.5,-2.8,3.3,1.4,2317,-12.6
O=C(Cc1ccc(Br)cc1)Nc1ccc2[nH]ncc2c1,7.6,-7.3,-3.2,0.6,6.6,nt,-1.2
CCOC(=O)c1sc2nc(CC(=O)OC)nc(NCc3ccc(F)cc3)c2c1C,8.9,1.4,10.3,7.1,11.1,16799*,0.3
NC(=O)c1cc(S(=O)(=O)NCCCc2ccco2)cs1,11.2,9.8,10.3,0.7,7.3,5498,-3.4
CCOc1ccc(-c2nnc3sc(COc4ccccc4)nn23)cc1,0.2,-0.5,-1.6,2.7,-3.0,11014,-11.1
CCOc1cc(/C=N\Nc2ccc([N+](=O)[O-])cc2)ccc1OCC(=O)Nc1ccc(C)c(C)c1,nt,nt,2.7,nt,nt,3172,-21.1
COCC(C)n1c(C)cc(C(=O)CSc2ncccn2)c1C (stereo not drawn),-1.6,5.9,-19.0,7.9,3.5,4304,-24.5
Cc1nnc(N2CCOCC2)c2ccccc12,nt,nt,0.9,-9.5,-5.6,4562,-10.5
C/C(=N\NC(=S)NC1CCCCC1)c1cccs1,nt,nt,-1.2,nt,nt,4629,-17.9

# Record cards (already shown). Order of screens: Mtb hypoxia rep | Mtb hypoxia rep growth | BJeLR viability | RN4220 kill | Sa ugtP lethal | Bead autofluor | PrP UTR inh
# `O=S(=O)(Nc1ccc(Cc2ccncc2)cc1)c1cccs1` is entered as -3.1 | 3.8 | 3.3 | -1.1 | -3.9 | 9265 | -16.2
# `COCC(C)n1c(C)cc(C(=O)CSc2ncccn2)c1C` (stereo not drawn) is entered as -1.6 | 5.9 | -19.0 | 7.9 | 3.5 | 4304 | -24.5

# Later entries
SMILES,Mtb hypoxia rep,Mtb hypoxia rep growth,BJeLR viability,RN4220 kill,Sa ugtP lethal,Bead autofluor,PrP UTR inh
Cc1cc(Cl)ccc1OCC(=O)N1CCCCC1,21.6,22.4,-0.3,4.4,-3.0,5207,-29.7
Cc1ccc(CN2CCN(C/C(Cl)=C/c3ccccc3)CC2CCO)o1 (stereo not drawn),-4.3,6.4,0.0,0.0,9.7,2758,-21.5
C=CCn1c(SCC(N)=O)nc2nc3c(cc2c1=O)COC(C)(C)C3,13.0,6.4,-1.3,2.6,-1.9,4602,-8.3
Cc1ccc2c(c1)N(C(=O)CCC(=O)NCCN1CCOCC1)CC(C)O2 (stereo not drawn),3.7,-1.8,-6.9,-12.9,-5.2,5371,-16.7
Cc1ccc2nsnc2c1NC(=O)COc1ccccc1F,-0.3,1.8,0.9,1.8,3.4,2256,-1.1
COC(=O)c1c(C)oc(C)c1S(=O)(=O)N(Cc1ccccc1)C(C)C,23.4,3.0,5.3,13.3,7.7,3310,nt
CN(Cc1cccs1)S(=O)(=O)c1ccc(Cl)cc1F,12.7,6.7,nt,6.9,1.9,5399,-22.6
CC(C)(C)OC(=O)N1CCC(C(=O)O)CC1,nt,nt,-1.3,0.3,8.8,2419,-28.8
CC(Sc1nc(N)cc(=O)[nH]1)C(=O)Nc1nc2c(s1)CCCC2 (stereo not drawn),3.3,13.6,0.0,-0.3,12.0,5256,-6.9
O=C(CNC(=O)c1ccc(Cl)cc1)OCn1nnc2ccccc2c1=O,-1.0,1.0,nt,13.5,2.9,9202,-18.9
S=C(c1ccc2c(c1)OCO2)N1CCN(c2cccc(Cl)c2)CC1,7.2,9.4,nt,1.3,-5.7,3766,-32.0
Cc1ccc(C(=O)N/C(=C\c2cn(S(=O)(=O)N(C)C)c3ccccc23)C(=O)NCCCN2CCOCC2)cc1,0.9,-9.7,-4.8,7.2,-6.5,4474,-9.8
O=c1oc2ccccc2n1CCn1c2ccccc2c2nc3ccccc3nc21,nt,nt,-6.5,nt,nt,3091,-7.6

# High-throughput results: PubChem BioAssay, several laboratories
